# LT uptake inh: qHTS Assay for Anthrax Lethal Toxin Internalization; Potency, µM (doses to about 40 µM), without a hit: at the highest dose activity change, negative = inhibition, most hits filed as inhibitors; Cells, anthrax lethal toxin internalization, FRET ratio (460/530); 0.67% of 70,000 active; active = well fitted falling ratio curve with the 530 nm signal flat; inconclusive = other ratio curves, or a change in one channel alone; inactive = flat curves in the ratio and both channels; the % refers to the ratio; further: on the % scale 0 is the no-effect control and ±100 the full control effect; nearly all actives have a fitted effect of over 50% in size; tested in ME-180 cells; beta-lactamase reporter
# SmPrx2 inh: Schistosoma Mansoni Peroxiredoxins (Prx2); Potency, µM; S. mansoni Prx2 activity coupled to TGR/GSH (TGR is thioredoxin glutathione reductase), NADPH fluorescence loss, qHTS; some inactives read as strong as hits; 0.07% of 65,000 active; AID 448, 2006; active means full or partial inhibition curve with a strong effect at the top dose; inconclusive means weaker partial or single-point curve; inactive means no accepted curve; further: series up to 57 µM; many of its hits are not listed in these tables
#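 qHTS, coupled TGR/Prx2 format; 15 min compound preincubation at RT; reaction started with H2O2 (2.5 mM aliquot); kinetic NADPH fluorescence decrease, ex 365/em 450 nm.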
# * = called active by the depositor; ? = inconclusive; . = not tested or not shown; [ ] = dose if it differs, or a comment. Potency means the concentration at half of the fitted maximal effect.
SMILES,LT uptake inh,SmPrx2 inh
CCOC(=O)N1CCC(N(C(=O)Nc2ccc(Cl)c(Cl)c2)C(C)CC)CC1 (configuration not stated),?,>57
CNP1(NC)=Nc2nn(-c3ccccc3)c(N)c2C(c2ccccc2)=N1,-9%,>57
CCOC(=O)c1c(C)[nH]c(C(=O)Cn2c(=O)c3c(ncn3CC)n(Cc3ccccc3)c2=O)c1C,-2%,>57
Cc1ccc(C(=O)N2CCN(c3ccccc3)CC2)cc1S(=O)(=O)N1CCCC1,-12%,>57
CC(C)C(=O)Nc1ccc(NC(=O)c2ccco2)cn1,-12%,>57
O=S(=O)(/N=S1/CC=CCN1S(=O)(=O)c1ccccc1)c1ccccc1 (configuration not stated),?,.
Nc1nc2n(n1)C(c1ccco1)CC(c1ccc(F)cc1)N2 (configuration not stated),-3%,>57
Nc1ccc(S(=O)(=O)O)cc1,-8%,.
COc1cc(C2C3C(=O)N(Cc4ccccc4)C(=O)C3ON2c2ccccc2)cc(OC)c1O (configuration not stated),.,>57
N#Cc1cc2c(nc1SCc1ccncc1)CCC2,-11%,>57
O=C(Nc1cccc(OCC(=O)N2CCOCC2)c1)C1CCCCC1,-1%,>57
CCc1ccc(S(=O)(=O)NCc2csc(C)n2)s1,-5%,>57
COc1cccc(NC(=O)CSc2nnc(-c3ccc(C)cc3)o2)c1,-5%,>57
CCOC(=O)CC(=O)CSc1ccc2nnc(-c3ccc(F)cc3)n2n1,?,>57
Cn1c(=O)c2c(nc(N3CCN(Cc4ccccc4)CC3)n2CCCc2ccccc2)n(C)c1=O,-5%,>57
CCNc1ncc2nc(-c3ccc(F)cc3)c(=O)n(CCc3ccccc3)c2n1,?,>57
CCC1CCCCN1C(=O)CSc1nnc(-c2cccc(Cl)c2)o1 (configuration not stated),-15%,>57
O=C(c1cccn2c(=O)c3cc(Cl)ccc3nc12)N1CCN(Cc2ccc3c(c2)OCO3)CC1,23%,>57
Cc1ccc(CN2C(=O)CCC2C(=O)NCC2CCCO2)cc1 (configuration not stated),7%,>57
COc1ccccc1N1CCN(C(=O)CCn2c(=O)[nH]c3ccsc3c2=O)CC1,-4%,>57
Cn1c(SCc2ccc(C#N)cc2)nnc1-c1ccccc1,-5%,>57
Cc1cc(C)n(-c2nnc(C)n2NS(C)(=O)=O)n1,0%,>57
COc1cccc(CNc2cccc3cccnc23)c1O,-16%,>57
CC(=O)Nc1ccc(S(=O)(=O)NCc2csc(C)n2)cc1,4%,>57
O=C(c1cccc(F)c1)N1CCC[C@@]2(CCN(Cc3nccs3)C2)C1,3%,>57
CCOC(OCC)P(=O)(C(C)C)C(C)C,-7%,?
C/C(N)=C(/C#N)C(=O)CSc1nnc(Cc2ccccc2F)n1N,-7%,>57
COC(=O)c1[nH]c2cc(C)ccc2c1NC(=O)CN1CCCc2ccccc21,18%,>57
COc1ccccc1Nc1nnc(SCC(=O)N2CCCC2)s1,?,>57
CC1(C)CC(=O)C=C(NC2CCCCCC2)C1,11%,.
O=C(c1c(Cl)cccc1Cl)N1CCCCCC1,-13%,>57
CN(C(=O)c1ccco1)c1nnc(C23CC4CC(CC(C4)C2)C3)s1,-5%,>57
Cc1cccc(OCCCCCn2ccnc2)c1C,-1%,.
O=C(Nc1ncc2c(n1)CC(c1ccccc1)CC2=O)c1ccco1 (configuration not stated),9%,>57
Brc1ccccc1-c1ccccc1,?,.
CCCCCn1c(=O)[nH]c2cc(C(=O)NCc3ccc4c(c3)OCO4)ccc2c1=O,3%,>57

# Look-ups from the list:
# `O=C(Nc1ncc2c(n1)CC(c1ccccc1)CC2=O)c1ccco1` (configuration not stated) – SmPrx2 inh = >57
# `CNP1(NC)=Nc2nn(-c3ccccc3)c(N)c2C(c2ccccc2)=N1` – SmPrx2 inh = >57

# 4 structures from above, sorted by number of heavy atoms, rising:
SMILES,LT uptake inh,SmPrx2 inh
CC(=O)Nc1ccc(S(=O)(=O)NCc2csc(C)n2)cc1,4%,>57
CCC1CCCCN1C(=O)CSc1nnc(-c2cccc(Cl)c2)o1 (configuration not stated),-15%,>57
O=C(Nc1ncc2c(n1)CC(c1ccccc1)CC2=O)c1ccco1 (configuration not stated),9%,>57
COc1cc(C2C3C(=O)N(Cc4ccccc4)C(=O)C3ON2c2ccccc2)cc(OC)c1O (configuration not stated),.,>57

# The list continues:
SMILES,LT uptake inh,SmPrx2 inh
C=C1c2cc(CC)ccc2NC(=O)N1c1ccc(C)cc1,10µM*,>57
CCc1ccccc1-n1cnc2cc(C(=O)O)ccc21,14%,>57
Cc1ccc2oc(=O)c3cnn(CC(=O)NCCc4ccsc4)c3c2c1,-6%,>57
COc1ccc2cnn(-c3ccccc3)c(=O)c2c1OC,9%,>57
CCOC(=O)N1CCC(N2C(=O)c3ccccc3C2Nc2cccnc2)CC1 (configuration not stated),4%,>57
COc1ccc2c(c1)c1nnc(SC)nc1n2C,13%,>57
Cc1cc(N=CC2=C(O)CCCC2=O)no1,6%,.
CN=c1oc2ccc(Cl)cc2cc1C(N)=O,-10%,>57
CCOC(=O)N1CCN(CC(=O)Nc2c(C(=O)OC)[nH]c3cccc(Cl)c23)CC1,13%,>57
COc1ccccc1-c1noc(-c2ccncc2)n1,.,>57
c1ccc2c(c1)CC1(CCCC1)n1nnnc1-2,-3%,>57
Cc1cc(C)n(CC(O)CN2c3ccccc3Sc3ccccc32)n1 (configuration not stated),?,.
O=C(c1ccco1)N1CCN(c2ccc(S(=O)(=O)N3CCCC3)cc2)CC1,?,>57
Cc1ccc(S(=O)(=O)NCC(=O)OCC(=O)Nc2ncc(Cl)cc2Cl)cc1,9%,>57
COc1ccc(O[C@H]2C=C[C@@H](c3ccccc3)O[C@H]2COC(=O)NCc2cccc3ccccc23)cc1,-6%[1.6 µM],.
O=C(c1ccccc1)N1CCN(C(=O)N2CCCCC2)CC1,-16%,>57
CCOC(=O)c1cc2sccc2n1CC(=O)Nc1ccc(OC)c(OC)c1,-23%,>57
CN(CCNS(=O)(=O)c1ccc2c(c1)oc(=O)n2C)Cc1ccccc1,1%,>57
CCOC(=O)c1sc(NC(=O)CSc2nnnn2-c2ccccc2)c(C(=O)OCC)c1C,?,>57
COc1ccc(NC(=O)N2CC3(CCN(C(=O)Oc4ccccc4)CC3)C2)cc1,-5%,>57
Cn1nnnc1SCC(=O)Nc1ccccc1C(=O)NCc1ccccc1,-10%,.
c1nc(NC2CCCC2)c2[nH]cnc2n1,-4%,>57
CCCn1c(SCC(=O)NCc2ccco2)nc2c1c(=O)n(C)c(=O)n2C,-12%,>57
CCOc1ccc2cc(C#N)c(SCC(=O)N3CCOCC3)nc2c1,-5%,>57
CCOC(=O)CN1C(=O)C(C)(C)Oc2ccc(C(=O)Nc3ccccc3)cc21,?,>57
CC1=CCC2C(=O)N(c3ccc(Br)cc3C)C(=O)C2C1 (configuration not stated),?,>57
O=C(CCSc1nnc(-c2ccco2)o1)Nc1ccc(Cl)cc1,12%,>57
COc1ccc(-c2coc3ccc(O[C@@H]4O[C@@H](COC(C)=O)[C@@H](OC(C)=O)[C@@H](OC(C)=O)[C@H]4OC(C)=O)cc3c2=O)cc1,?,>57
COc1cc(OC)c(-c2nn3c(C4CCCCC4)nnc3s2)cc1OC,?,>57
NC(=NCCC[C@@H](N)C(=O)O)N[N+](=O)[O-],2%,>57
Cc1ccc(N(C=NC#N)CC(=O)N2CCN(c3ccccc3)CC2)cc1,?,>57
CCN1CCN(C(=O)CN(c2ccccc2C)S(C)(=O)=O)CC1,4%,>57
O=C(CSc1nc2cccnc2n1Cc1ccccc1)NCc1ccco1,17%,>57
Cc1cc(C)c(C#N)c(SCS(=O)Cc2ccccc2)n1 (configuration not stated),-14%,>57
COc1ccc(OC)c(C2CC(=O)c3c([nH]c(C(=O)OC(C)C)c3C)C2)c1 (configuration not stated),?,>57
CCSc1oc(-c2ccccc2)nc1S(=O)(=O)c1ccccc1,-2%,>57
O=C(NCCc1csc(-c2cccnc2)n1)c1ccco1,18%,>57
CCCOC(=O)C1=C(C)NC2=C(C(=O)C(C(=O)OC)C(C)C2)C1c1ccc(N(CC)CC)cc1 (configuration not stated),?,>57
CCOc1cc2[nH]c(=O)n(Cc3cccc(OC)c3)c(=O)c2cc1OCC,5%,>57
Cc1ccc(C(N)=Nc2ccccc2)cc1,-13%[8 µM],>57
CCn1cc(C2=NCC(C)O2)c2ccccc21 (configuration not stated),-13%,>57
CCOC(=O)c1nc2nc(C)cc(=O)n2[nH]1,-5%,>57
CCn1c(C2CC(=O)N(c3cc(C)cc(C)c3)C2)nc2ccccc21 (configuration not stated),-6%,>57
CC(C)(CS)C(=O)N1CCC[C@H]1C(=O)O,1%[3.58 µM],>57
COc1cnc(NS(=O)(=O)c2ccc(N)cc2)nc1,11%[3.58 µM],>57
Cc1noc(C)c1-c1nc(Nc2ccc(F)cc2)c2ccccc2n1,-8%,>57
CCCn1c(SCC(=O)Nc2sc(C)c(C)c2C(=O)OCC)nc2c1c(=O)n(C)c(=O)n2C,-5%,>57
N[C@@H](Cn1cc(I)c(=O)n(Cc2ccc(C(=O)O)cc2)c1=O)C(=O)O,?,>57

# Six entries from above, with values under each structure.
# Each structure is followed by: LT uptake inh | SmPrx2 inh
CCn1cc(C2=NCC(C)O2)c2ccccc21 (configuration not stated)
    -13% | >57
CCOC(=O)c1nc2nc(C)cc(=O)n2[nH]1
    -5% | >57
CCOc1cc2[nH]c(=O)n(Cc3cccc(OC)c3)c(=O)c2cc1OCC
    5% | >57
CC(C)(CS)C(=O)N1CCC[C@H]1C(=O)O
    1%[3.58 µM] | >57
N[C@@H](Cn1cc(I)c(=O)n(Cc2ccc(C(=O)O)cc2)c1=O)C(=O)O
    ? | >57
COc1cnc(NS(=O)(=O)c2ccc(N)cc2)nc1
    11%[3.58 µM] | >57

# The list goes on.
SMILES,LT uptake inh,SmPrx2 inh
C=Cc1cccc(C)c1,?,.
N#CC1=C(N)Oc2cc(O)ccc2C1c1cccs1 (configuration not stated),-25%,.
Cc1ccc(P(=O)(O)c2ccc(C)cc2)cc1,-6%,.
CCCCCc1c(C)nc(Nc2nc(C)c3cc(OC)ccc3n2)[nH]c1=O,-12%,>57
COc1ccc(-c2c(C)oc3c(CN4CCN(CCO)CC4)c(O)ccc3c2=O)cc1OC,.,>57
COc1cccc(Cn2c(=O)c(-c3cc(F)cc(F)c3)nc3cnc(OC)nc32)c1,-14%,>57
O=C(COC(=O)c1cccs1)Nc1ccccc1,-4%,>57
Cc1nnc(NC(=O)CSc2nnc(Cc3ccccc3)n2Cc2ccccc2)s1,.,>57
COCCOC(=O)C1=C(C)NC(=O)CC1c1cc2c(cc1Br)OCO2 (configuration not stated),6%,>57
Cc1cc(C(=O)N2CCN(c3cccc(Cl)c3)CC2)c(C)o1,5%,>57
O=C1c2ccccc2CC1Sc1nnc(-c2ccncc2)o1 (configuration not stated),?,>57
O=c1c(-c2ccc(F)cc2)nc2cnc(N3CCNCC3)nc2n1-c1ccccc1,?,>57
Clc1ccc(-c2nc3nc4ccccc4nc3n2Cc2ccco2)cc1,?,>57
CN(C)S(=O)(=O)c1ccc(C(=O)Nc2nc(-c3cccs3)cs2)cc1,?,>57
CC1=Nn2c(nnc2-c2cc(C)[nH]n2)SC1,-2%,>57
CC(C)(C)C(=O)Cn1c(NCCCO)nc2ccccc21,-12%,>57
COC(=O)CCn1nnc(-c2ccc(C)cc2)n1,?,>57
Cc1nc2c3cnn(-c4ccccc4)c3ncn2n1,?,>57
Cc1nc2cncnc2n(Cc2ccccc2)c1=O,-3%,>57
CC1CCN(S(=O)(=O)c2ccc3c(c2)c(=O)c(C(=O)N2CCCCC2)cn3C)CC1,2%,>57
CS(=O)(=O)Nc1ccc(Cc2ccc(NS(C)(=O)=O)cc2)cc1,-6%,>57
CCCC(=O)Nc1ccc(NC(=O)c2ccccc2OC)cn1,2%,>57
O=C(COc1ncnc2ccccc12)N1CCN(S(=O)(=O)c2ccc(Cl)cc2)CC1,-24%,>57
O=C(CCn1c(=O)oc2ccccc21)N1CCOCC1,3%,>57
O=C(CN1C(=O)C2C3C=CC(C3)C2C1=O)NCCN1CCCc2ccccc21 (configuration not stated),3%,>57
CCOc1ncccc1C(=O)OCc1cc(=O)oc2c(C)c(C)ccc12,-6%,>57
CC(=O)N1CCc2cc(NS(=O)(=O)c3cccs3)ccc21,0%,>57
NCCC[C@@H](CC(=O)N[C@@H]1CCNC[C@H]1C(=O)N[C@H](CC(=O)N[C@@H](CCC(=O)O)CC(=O)O)Cc1ccccc1)NC(=O)C[C@H](CO)NC(=O)[C@@H]1CNCC[C@H]1N,4%,>57
CN(Cc1ccc(-n2cccn2)cc1)C(=O)c1cnn2c1NC(c1ccco1)CC2C(F)(F)F (configuration not stated),-17%,>57
CCOC(=O)C1CCCN(C(=O)c2cc3ncc(Br)cn3n2)C1 (configuration not stated),3%,>57
CCCC1(C(=O)OCC)NC(c2ccc(N(C)C)cc2)C2C(=O)N(c3ccc(F)cc3)C(=O)C21 (configuration not stated),-20%,>57
CC(C)OC(=O)C(NC(=O)c1ccccc1)=C1CCCCC1,-6%,.

# Single records (already shown).
# Record of `CCOC(=O)C1CCCN(C(=O)c2cc3ncc(Br)cn3n2)C1` (configuration not stated) = LT uptake inh: 3%; SmPrx2 inh: >57
# Record of `CC(C)OC(=O)C(NC(=O)c1ccccc1)=C1CCCCC1` = LT uptake inh: -6%; SmPrx2 inh: .

# Compound activity (PubChem BioAssay)

# These rows are one share of the data, so the mix of outcomes need not match the whole.
